# HPGD block – inhibitors of human 15-hydroxyprostaglandin dehydrogenase (HPGD) | P15428 | purified HPGD, NADH fluorescence kinetic, PGE2 substrate | Potency, µM, for inactives: top-dose activity change, negative = inhibition, usual class: inhibitors | hit rate 4.3% among 150,000 | AID 894; active = well fitted inhibition curve with a large enough effect (not every such curve was filed as active); inconclusive = small, poorly fitted or top-dose-only effect, or another doubt; inactive = no such curve, though single readings can be large or run the other way;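 also: top concentration of the series not given in the record; plate controls included wells without enzyme; inactives centre near -10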
# Target sequence (P15428 whole entry, looked up): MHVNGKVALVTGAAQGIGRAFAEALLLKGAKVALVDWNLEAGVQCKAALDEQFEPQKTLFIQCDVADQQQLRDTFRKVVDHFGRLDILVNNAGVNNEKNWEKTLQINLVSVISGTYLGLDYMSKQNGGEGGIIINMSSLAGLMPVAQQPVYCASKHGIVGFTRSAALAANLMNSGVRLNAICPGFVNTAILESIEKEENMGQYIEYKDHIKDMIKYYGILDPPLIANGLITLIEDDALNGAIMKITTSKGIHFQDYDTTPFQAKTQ
#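 NADH formation kinetics: reaction with 30 uM PGE2 and 1 mM NAD+ (final), 20 nM enzyme, Tris-HCl pH 8 with Tween 20, after 15 min compound preincubation at room temperature. Fluorescence change, last versus first of five reads.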
# * hit, by the source's call; ? = inconclusive. % is scaled to controls: 0 for no effect and ±100 for the full control effect; potency is read from the fitted curve at half-maximal effect. Some of the compounds tested (hit frequency here may not be typical).
SMILES,HPGD block
COc1ccc(CNCC(O)(c2ccccc2)c2ccc(Cl)cc2)cc1 (stereo unspecified),-1.0%
CCn1c(SCC(=O)O)nnc1-c1ccccc1,-11.7%
Cc1ccccc1-n1c(C)nnc1SCC(=O)NNC(=O)c1ccccc1,-10.1%
COC(/C=C/Nc1ccc(Br)cc1)=C(C#N)C#N,-5.8%
O=C(O)c1ccccc1C(=O)NCc1ccccc1,-14.0%
COc1cccc(OCCCOc2ccccc2C(C)C)c1,0.9%
CC(C)NC(=O)CSc1nnc(-c2ccc(C(C)(C)C)cc2)n1C,-5.2%
COc1ccc(N2CCN(S(=O)(=O)c3ccc(OC)cc3)CC2)cc1,-5.0%
O=C(c1ccccc1Sc1c(Cl)cccc1[N+](=O)[O-])N1CCOCC1,-5.4%
Cc1ccccc1-n1c(C)cc(/C=N/Nc2ccc([N+](=O)[O-])cn2)c1C,-16.3%
COc1ccccc1-c1nnc2sc(COc3ccccc3)nn12,-18.8%
COc1ccc(C(=O)NC(=S)NCc2ccco2)cc1OC,-5.9%
O=c1c2ccccc2c(-c2ccccc2)nn1Cc1ccc(Cl)cc1,-23.0%
CN(Cc1ccccc1)C(=O)[C@H]1CCC(=O)N1Cc1ccco1,-7.9%
CC(=O)c1c(C)[nH]c(C(=O)OCC(=O)NCCc2ccc(F)cc2)c1C,-8.6%
CCOC(=O)C1=C(Nc2cccc(Cl)c2)OCC1=O,2.7%
CCCc1[nH]nc2c1C(Cc1ccccc1)C(C#N)=C(N)O2 (stereo unspecified),-19.5%
COc1ccccc1C(=O)Oc1ccc(C(C)C)cc1,?
Cc1ccc(OC(=O)c2sc(Cl)nc2C)cc1C,-17.8%
CN1/C(=C\C(=O)c2oc3ccccc3c2N)C(C)(C)c2ccccc21,-22.2%
COc1cccc(C(=O)CSc2nnc(-c3cccs3)o2)c1,-14.4%
O=C1COC(c2ccccc2O)=NN1CCCN1CCCC1,-9.1%
C=CCOc1nc(N2CCCC2)nc(N2CCCC2)n1,-8.1%
O=C(N/N=C\c1ccc(Sc2ccccn2)o1)c1cccc(F)c1,-1.5%
CC1(C)CC(=O)C2=C(C1)OC(N)=C(C#N)C2CCc1ccccc1 (stereo unspecified),-18.1%
COc1ccc(CCNC(=O)NC2CCCCC2)cc1OC,-10.3%
Cc1cc(C(=O)CN2C(=O)NC3(CCCCC3C)C2=O)c(C)n1Cc1cccs1 (stereo unspecified),-8.9%
CCc1nnc(N/N=C/c2ccc(N3CCC(C)CC3)c([N+](=O)[O-])c2)n1N,-8.2%
Cc1ccccc1OCC(=O)N(Cc1cccs1)C1CCS(=O)(=O)C1 (stereo unspecified),-2.8%
CCOc1cc(C(=O)Nc2ccc(N3CCN(S(C)(=O)=O)CC3)cc2)cc(OCC)c1OCC,2.5%
CCOc1ccc(S(=O)(=O)N/N=C2/CCCC(=O)C2)cc1,-6.1%
CC(C)C(C(=O)NC1CCCCC1)N(CC1CCCO1)C(=O)CNS(=O)(=O)c1ccc(F)cc1 (stereo unspecified),-5.1%
CC(C)CN1C(=O)c2ccc(C(=O)Nc3ccncc3)cc2C1=O,-3.1%
CC(C)n1cc(/C=C2/NC(=O)N(c3cccc(Cl)c3)C2=O)c2ccccc21,-19.9%
c1coc(-c2nc(-c3ccco3)c(-c3ccco3)nc2-c2ccco2)c1,?
Cc1ccc2c(Cl)cc(Cl)c(O)c2n1,-9.4%
CCOc1ccc(NC(=NCc2ccc3c(c2)OCO3)SC2CC(=O)N(c3ccc(C(=O)O)cc3)C2=O)cc1 (stereo unspecified),-1.0%
Cc1cccc2c1OCC/C2=N\NC(=O)COc1ccccc1,-7.2%
CCCNC(=O)COc1cccc(C(=O)NCc2ccccc2)c1,-8.5%
CC(C)C(=O)N(Cc1cc(=O)[nH]c2ccccc12)c1ccccc1,?
Cc1cc(C)c(C)c(S(=O)(=O)NCc2ccco2)c1C,2.7%
CCOC(=O)c1c(C)[nH]c(C(=O)CSc2nc3ccccc3o2)c1C,3.7%
O=C(NCc1cccnc1)c1ccc(COc2ccc3c(c2)CCC3)o1,?
CCCCc1nnc(NC(=O)C2CC(=O)N(c3ccc4c(c3)OCCO4)C2)s1 (stereo unspecified),-16.8%
N#CC1=C(SCC(=O)Nc2ccccc2)NC(=O)CC1c1ccc(O)cc1 (stereo unspecified),-1.7%
COc1ccc(C(=O)c2coc3ccc(O)c(CN4CCCC4)c23)cc1,-1.4%
CCN(CC)c1ccc(NC(=O)CSc2nnc3nc(C)cc(C)n23)cc1,15.8µM*
CC1(C)Cc2c(sc3c2C2=NCCN2C=N3)CS1,-12.9%
CC1CCCN(CCOCCSc2ccccc2)C1 (stereo unspecified),3.9%
COc1ccc(-c2nc(CSCC(=O)NC3CCCc4ccccc43)c(C)o2)cc1 (stereo unspecified),-17.9%

# Part of the list above, field by field:
> CCOc1ccc(NC(=NCc2ccc3c(c2)OCO3)SC2CC(=O)N(c3ccc(C(=O)O)cc3)C2=O)cc1 (stereo unspecified)
  HPGD block = -1.0%
> COc1ccc(CNCC(O)(c2ccccc2)c2ccc(Cl)cc2)cc1 (stereo unspecified)
  HPGD block = -1.0%
> CC(C)n1cc(/C=C2/NC(=O)N(c3cccc(Cl)c3)C2=O)c2ccccc21
  HPGD block = -19.9%
> CC(C)CN1C(=O)c2ccc(C(=O)Nc3ccncc3)cc2C1=O
  HPGD block = -3.1%

# Next part:
SMILES,HPGD block
COc1ccc(C(CC(=O)Nc2ccccc2OC)n2cccc2)cc1 (stereo unspecified),25.1µM*
COc1ccc(-c2n[nH]c(=S)n2/N=C/C=C/c2ccccc2OC)cc1,1.26µM*
C/C(=N\NC(=O)C(N)=O)c1ccc(Br)cc1,-10.6%
Cc1ccc(CNCC(O)(c2ccc(F)cc2)c2ccc(F)cc2)cc1,-7.0%
COc1cc2c(C=O)c3c4c(cc(OC)c(OC)c4c2cc1OC)CCN3C,-22.9%
CCCCCn1c(Sc2ccccc2)nc2c1c(=O)[nH]c(=O)n2C,-6.5%
Cc1[nH]c2ccccc2c1SCCNC(=O)c1ccc(S(=O)(=O)N2CCCC2)cc1,-4.7%
CCN1CCN(S(=O)(=O)c2cc(OC)c(Cl)cc2OC)CC1,-3.7%
CC/C(=C\C(=O)c1ccncc1)Nc1ccc(Br)cc1,-7.7%
O=C(Nc1cccc(F)c1)C1CC(=O)N(c2ccc(Cl)cc2)C1 (stereo unspecified),-3.4%

# 4 entries picked at random from those above:
SMILES,HPGD block
C/C(=N\NC(=O)C(N)=O)c1ccc(Br)cc1,-10.6%
Cc1[nH]c2ccccc2c1SCCNC(=O)c1ccc(S(=O)(=O)N2CCCC2)cc1,-4.7%
COc1ccc(C(CC(=O)Nc2ccccc2OC)n2cccc2)cc1 (stereo unspecified),25.1µM*
Cc1ccc(CNCC(O)(c2ccc(F)cc2)c2ccc(F)cc2)cc1,-7.0%

# Further records follow:
SMILES	HPGD block
COc1ccc(C(=O)N/N=C/c2ccc(OC)c(CSc3ccccn3)c2)cc1	31.6µM*
Cc1cc(C2=NNC(=NC3CC3)SC2)c(C)n1-c1ccccc1	-12.6%
COc1ccc(/C=N/N2CCN(C)CC2)cc1O	-18.0%
O=C1OC(c2ccccc2)=N/C1=C\C=C\c1ccccc1[N+](=O)[O-]	-20.8%
Cc1ccc(C)c(N2CCN(C(=O)Cn3c(=O)[nH]c4ccsc4c3=O)CC2)c1	-8.2%
N=c1n(CC(=O)c2ccc([N+](=O)[O-])cc2)c2ccccc2n1Cc1ccc(Cl)cc1	-1.2%
O=C(NC(NC(=O)c1ccccc1)c1ccccc1)c1ccccc1	3.0%
O=C(CN(Cc1cccs1)S(=O)(=O)c1ccc(S(=O)(=O)NC2CCCCC2)cc1)Nc1ccccc1	-20.9%
COc1cc(-c2nnc3sc(-c4cccs4)nn23)cc(OC)c1OC	?
COc1cc(/C=N/NC(=O)C(=O)Nc2ccccn2)ccc1O	-6.6%
Cc1nc2c(cc1C#N)C(=O)c1ccccc1-2	-5.7%
COc1ccc(C(=O)CSc2nnc(CNC(=O)c3ccc(OC)cc3)n2C)cc1	-5.6%
Cc1c(Cl)c(C(=O)N2CCCc3ccccc32)nn1C	-11.5%
CCSc1ccccc1C(=O)NCc1ccco1	12.6µM*
CC(=O)c1c(C)[nH]c(C(=O)N2CCc3ccccc3C2)c1C	17.8µM*
Cc1cc(NC(=O)c2cccc(S(=O)(=O)N3CCCCCC3)c2)no1	4.3%
O=C(Nc1ccc2c(c1)oc1ccccc12)c1ccc2c(c1)OCO2	?
CCN(CC)S(=O)(=O)c1ccc2c(c1)c(=O)c(C(=O)N1CCc3ccccc3C1)cn2C	-14.5%
CCCC[C@H](CC)CN1CN(C[C@@H](CC)CCCC)CC(C)(N)C1	1.3%
CC(=O)NC1(NC(C)=O)CCN(C)C(c2ccccc2)C1C (stereo unspecified)	-5.1%
COc1cc(/C=N/NS(=O)(=O)c2ccccc2)ccc1OS(=O)(=O)c1ccc(C)cc1	-18.9%
O=C(NCc1ccccc1)C(Cc1ccccc1)NS(=O)(=O)c1cccc2nsnc12 (stereo unspecified)	-6.3%
CC(C)Cc1cc(C(=O)Nc2cc(Br)ccc2O)no1	25.1µM*
COC1=CCC2([N+](=O)[O-])CN(CC(=O)O)CC1([N+](=O)[O-])C2 (stereo unspecified)	-5.2%
N#CC(c1ccc(Cl)nn1)c1ccc(Cl)cc1Cl (stereo unspecified)	-6.2%
COc1ccc(N/C=C/C(=O)c2ccc3c(c2)OCO3)cc1OC	-6.6%
O=C(O)c1cccc(OCCO)c1	-13.5%
O=c1c2ccccc2sc2ccc(Cl)cc12	-7.2%
CC(=O)NC(=O)COC(=O)/C=C/c1c(C)nn(Cc2c(Cl)cccc2Cl)c1Cl	-27.1%
CC1CCCC(C)N1C(=O)CSc1nc2ccccc2s1 (stereo unspecified)	2.24µM*
CC(C)CCOc1cccc(OCC(=O)NC2CCS(=O)(=O)C2)c1 (stereo unspecified)	-6.9%
Cc1cc(C(=O)Nc2cccnc2)cs1	-8.5%
O=C(N/N=C\c1ccc(Cl)s1)c1ccc(Cn2cccn2)o1	-10.0%
COC(=O)c1ccccc1S(=O)(=O)N(Cc1ccco1)Cc1cc2cc(OC)ccc2[nH]c1=O	-28.3%
O=C1CC(C(=O)Nc2ccccc2)S/C(=N\N=C\c2ccco2)N1 (stereo unspecified)	-8.2%
CC1CCCC(NC(=O)c2ccc3c(=O)n(CC4CCCO4)c(=O)[nH]c3c2)C1C (stereo unspecified)	-17.5%
CCOC(=O)c1nnn(-c2nonc2N)c1CN1CCc2ccccc2C1	0.4%
CC1CCN(C(=O)c2ccc(NS(C)(=O)=O)cc2)CC1	10µM*
N#CCCN1CCNCC1	5.2%
CC(C)(C)C1CCc2[nH]c3ccccc3c(=O)c2C1 (stereo unspecified)	?
S=C(Nc1ccccc1)N1CCn2c1nc1ccccc12	15.8µM*
O=C(NCc1ccccc1)C(=O)NCC1OCCN1S(=O)(=O)c1ccc2c(c1)OCCO2 (stereo unspecified)	-0.4%
Cc1c(NC(=O)C(CC(=O)O)NCc2ccco2)c(=O)n(-c2ccccc2)n1C (stereo unspecified)	-10.4%
C=CCOC(=O)C1=C(C)NC(=O)NC1/C=C/c1ccccc1 (stereo unspecified)	-3.7%
CCN(CC)C(=O)c1sc(N)c(C#N)c1C	-13.4%
CCn1c(-c2ccc(Cl)cc2)n[nH]c1=S	-15.1%
CC(=O)c1ccc(NC(=O)CCNS(=O)(=O)c2cccc3nonc23)cc1	-10.5%
CCNC(=S)N(Cc1ccc2c(c1)OCO2)C1CC(=O)N(c2ccc(F)cc2)C1=O (stereo unspecified)	-0.1%
COc1ccc(C(=O)Nc2cc(OC)c(NC(=O)c3ccco3)cc2OC)cc1	?
CCCCn1c(NCc2ccccc2NS(=O)(=O)c2ccc(C)cc2)nc2ccccc21	-14.0%

# Continued:
SMILES	HPGD block
c1ccc2cc(C3=NCCN3)ncc2c1	-5.2%
COCC(=O)Nc1cc(C(=O)Nc2cccc(C)c2C)ccc1Cl	2.5%
CCN(CC)CCNC(=O)c1ccccn1	-4.4%
CC1(C)Cc2ccccc2C(NNC(=O)c2ccncc2)=N1	-10.9%
O=S(=O)(NC1CCCC1)c1ccccc1Cl	-20.2%
CCOc1ccc(-c2nc(C#N)c(N3CCOCC3)o2)cc1	?
CCCCCCCCCCCCCC(=O)N[C@H](C)[C@@H](O)c1ccccc1	-7.8%
COc1ccc(Cl)cc1S(=O)(=O)N1CCN(Cc2ccc3c(c2)OCO3)CC1	1.3%
COc1ccc2nc(NC(=O)c3cccnc3SC)sc2c1	-7.3%
COc1ccc(/C=N/NC(=O)CCc2nc3ccccc3[nH]2)cc1	-16.4%
CCN(CC)Cc1c(O)ccc2c(C)c(CC(=O)OC)c(=O)oc12	?
CCCCC1CCC(c2nc(-c3cccnc3)no2)CC1 (stereo unspecified)	-20.6%
C=C1CSc2nc(=O)c3c4c(sc3n21)CCC4	14.1µM*
Cc1ccc(Nc2nc(C(=O)NCc3ccco3)cs2)cc1	-29.4%
CC1CCCCN1C(=O)/C(=C\c1ccccc1)c1ccccc1 (stereo unspecified)	14.1µM*
Cn1c(SCc2nnc3n2CCCCC3)nc2ccccc21	25.1µM*
CC(C)CC(NC(=O)OC(C)(C)C)C(=O)NC(C(=O)NC(C)C(N)=O)C(C)C (stereo unspecified)	-4.9%
COCCCNC(=O)CN1CCN(Cc2ccc(Cl)cc2)C1=O	-3.6%
Nc1c(C(=O)NCc2ccccc2)nnn1Cc1cccc(Cl)c1	-3.0%
O=c1c2ccccc2oc2nc3n(c(=O)c12)CCCS3	?
CCOC(=O)C(Oc1ccc(=O)n(-c2ccccc2)n1)C(C)=O (stereo unspecified)	-6.5%
CCOc1ccc(OCCCC(=O)NC2=NCCS2)cc1	-12.3%
COc1cc(NS(=O)(=O)c2ccc(NC(=O)COc3ccc(C)cc3)cc2)nc(OC)n1	-18.6%
